KCNQ2 block = KCNQ2 potassium channel inhibitors, primary screen, cell-based, CHO-K1, FluxOR thallium flux, B-score (AID 2156). 20 min; active compounds read low; only compounds with negative scores are shown here; some inactives read as strong as hits. Potassium voltage-gated channel subfamily KQT member 2 (Rattus norvegicus), O88943. hit rate 1.1% among 310,000. B-score at 10 µM;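 active = fluorescence ratio B-score at most minus 3 library SDs, with starting brightness B-score within 2 library SDs, cut at about -5.5 in these data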
Target sequence (O88943 whole entry, looked up): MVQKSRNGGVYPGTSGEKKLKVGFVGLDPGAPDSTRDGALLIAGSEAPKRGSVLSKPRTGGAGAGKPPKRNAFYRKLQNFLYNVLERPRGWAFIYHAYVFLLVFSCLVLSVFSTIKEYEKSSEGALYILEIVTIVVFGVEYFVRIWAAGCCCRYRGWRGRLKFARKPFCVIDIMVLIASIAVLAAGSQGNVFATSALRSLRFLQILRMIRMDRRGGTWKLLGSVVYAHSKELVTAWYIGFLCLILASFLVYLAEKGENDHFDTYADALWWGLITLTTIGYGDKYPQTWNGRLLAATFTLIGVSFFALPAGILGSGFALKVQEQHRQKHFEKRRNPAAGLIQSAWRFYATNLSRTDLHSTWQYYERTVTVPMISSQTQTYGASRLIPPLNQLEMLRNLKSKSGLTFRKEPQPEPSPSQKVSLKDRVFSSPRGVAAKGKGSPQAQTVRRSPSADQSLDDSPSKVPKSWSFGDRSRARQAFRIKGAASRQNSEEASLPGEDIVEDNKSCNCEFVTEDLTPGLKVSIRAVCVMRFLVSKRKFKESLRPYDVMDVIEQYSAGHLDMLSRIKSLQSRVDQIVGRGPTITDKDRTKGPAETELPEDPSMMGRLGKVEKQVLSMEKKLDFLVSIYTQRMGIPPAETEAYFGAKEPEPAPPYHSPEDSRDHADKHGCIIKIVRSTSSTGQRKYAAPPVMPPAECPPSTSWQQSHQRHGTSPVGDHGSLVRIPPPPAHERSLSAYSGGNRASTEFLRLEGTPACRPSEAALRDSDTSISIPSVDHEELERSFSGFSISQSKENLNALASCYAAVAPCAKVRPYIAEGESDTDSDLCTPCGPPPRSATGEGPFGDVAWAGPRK
KCNQ2 block baseline = further read-out of KCNQ2 block, marked with its call; B-score; measured here: initial fluorescence intensity artifact check;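 brightness before thallium and not channel activity; 0 = typical well and far values either way flag optical interference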
An asterisk follows results filed as active; i = inactive. Only part of the results is shown. The share of hits here may be higher or lower than overall.

Start of the data: the first 5 entries (preview)
Screens in order – KCNQ2 block | KCNQ2 block baseline
- CC(=O)Nc1ccc(NS(=O)(=O)c2ccc(-c3csc(C)n3)s2)cc1
    i | 1.56
- CCc1cc(=O)oc2cc(OCC(=O)NCCCn3ccnc3)c(Cl)cc12
    i | 3.11
- Cc1ccc(C)c(Cn2c(=O)n(-c3ccc(CC(=O)NCc4ccco4)cc3)c(=O)c3sccc32)c1
    i | -1.6
- COc1cccc(N2CCN(CC(=O)NC(C)c3ccccc3)CC2)c1 (stereo not given)
    i | 0.02
- Cc1ccc2nc(SCc3nnc(-c4ccccc4Br)o3)[nH]c2c1
    i | 0.88

Main list (from the top)
Screens in order – KCNQ2 block | KCNQ2 block baseline
- CC(=O)Nc1ccc(NS(=O)(=O)c2ccc(-c3csc(C)n3)s2)cc1
    i | 1.56
- CCc1cc(=O)oc2cc(OCC(=O)NCCCn3ccnc3)c(Cl)cc12
    i | 3.11
- Cc1ccc(C)c(Cn2c(=O)n(-c3ccc(CC(=O)NCc4ccco4)cc3)c(=O)c3sccc32)c1
    i | -1.6
- COc1cccc(N2CCN(CC(=O)NC(C)c3ccccc3)CC2)c1 (stereo not given)
    i | 0.02
- Cc1ccc2nc(SCc3nnc(-c4ccccc4Br)o3)[nH]c2c1
    i | 0.88
- CCC(CC)C(=O)Nc1ccc(C(=O)c2ccccc2)cc1
    i | -0.44
- COc1ccc(NCc2nnc(SCC(=O)c3ccc(C)cc3)o2)cc1
    i | -1.49
- CC(C)CCN1CCN(Cc2cc3ccccc3[nH]2)CC1CCO (stereo not given)
    i | 1.51
- COc1cc(/C=C/C(=O)O)cc(OC)c1OC
    i | -0.78
- CS/C(=C/[N+](=O)[O-])Nc1cccc2c1C(C)CC2(C)C (stereo not given)
    i | -2.02
- N#C/C(=C(/O)CSc1nnc(Cc2cccs2)n1C1CCCCC1)c1nc2ccccc2[nH]1
    i | -0.67
- COc1ccc(/C=N\NC(=O)c2cc(O)c(O)c(O)c2)cc1COc1ccc(C(=O)OCC(C)C)cc1
    i | -1.84
- CCCNC(=O)c1ccccc1NC(=O)c1ccccc1N(C)S(=O)(=O)c1ccc(C)cc1
    i | -0.16
- Cn1nccc1C(=O)NCCN1C(=O)OC(C)(C)C1(C)O (stereo not given)
    i | 0.2
- COCC(C)NC(=O)/C=C/c1ccc(OC)cc1 (stereo not given)
    i | -0.43

Four entries drawn at random from the list so far:
Screens in order – KCNQ2 block | KCNQ2 block baseline
- COCC(C)NC(=O)/C=C/c1ccc(OC)cc1 (stereo not given)
    i | -0.43
- Cc1ccc2nc(SCc3nnc(-c4ccccc4Br)o3)[nH]c2c1
    i | 0.88
- CS/C(=C/[N+](=O)[O-])Nc1cccc2c1C(C)CC2(C)C (stereo not given)
    i | -2.02
- Cn1nccc1C(=O)NCCN1C(=O)OC(C)(C)C1(C)O (stereo not given)
    i | 0.2

Next records follow:
Screens in order – KCNQ2 block | KCNQ2 block baseline
- NC(CS(=O)O)C(=O)O (stereo not given)
    i | 0.82
- Cc1nnc(-c2cccc(Br)c2)c2cn(-c3cccc(Br)c3)nc12
    i | 0.55
- Cc1ccc(-n2nc3c(=O)n(CCCC(=O)NCCc4ccccc4C)nc(C)c3c2C)cc1
    i | -0.53
- Cc1ccc(S(=O)(=O)/N=C(/c2ccc(F)cc2)N2CCCCC2)cc1
    i | 0.15
- CCN(C(=O)COC(=O)c1ccc(F)c(S(=O)(=O)N2CCOCC2)c1)C1CCS(=O)(=O)C1 (stereo not given)
    i | -0.54
- COc1ccc(/C=N/Nc2cc(C)nc3ccc(Br)cc23)cc1
    i | -1.43
- Cc1cc(NC(=O)[C@H](C)NC(=O)c2ccco2)ccc1Br
    i | -1.21
- COC(=O)c1cc(Br)c(=O)n(CCc2ccc(F)cc2)c1
    i | 2.63
- COc1ccc2c(=O)cc(C(=O)O)oc2c1
    i | -0.15
- O=C(c1ccc(N2CCCC2=O)cc1)N1CCCCCC1
    i | 0.28
- OCC(CO)(CO)N=Cc1c(O)ccc2ccccc12
    i | 0.41
- CC(C)OCCCNc1nc(-c2ccccc2)nc2ccccc12
    i | -0.46
- Cc1ccc(NNC(=S)Nc2ccc(C(C)C)cc2)c(C)c1
    i | 1.8
- Cc1ccc(Sc2ncccc2COC(=O)Nc2c(C)cccc2C)cc1
    i | -1.04
- ClCc1nnc(-c2cc3c(s2)CCCC3)o1
    i | -0.04
- CC(NC(=O)CCCOc1ccc(Cl)cc1)c1ccccc1 (stereo not given)
    i | 1.43
- CN(C)c1ccc(C(c2nnnn2CCOC(=O)Nc2ccc(Cl)cc2)N2CCOCC2)cc1 (stereo not given)
    i | -0.55
- Cc1cc(C)n(-c2nc(C(=O)O)cs2)n1
    i | 1.55
- C=CCOC(=O)C1C(=O)CC(C)(O)C(C(=O)OCC=C)C1c1ccc(N(C)C)cc1 (stereo not given)
    i | -0.57
- COc1ccccc1/C=C/C(=O)c1ccccc1
    i | 0.56
- Cc1nnc(SCC(=O)N(Cc2ccccc2)C(C)(C)C)[nH]c1=O
    i | 0.97
- Cn1c(=O)c2ncn(CC(=O)N/N=C/C=C/c3ccccc3)c2n(C)c1=O
    i | 0.23
- CC(C)(CNC(=O)CC1C(=O)NCCN1Cc1cccc(F)c1)N1CCOCC1 (stereo not given)
    i | -0.58
- Cc1ccc(C(=O)NC(=S)Nc2ccc(NC(=O)c3cccc(Cl)c3)cc2)cc1
    i | 1.29
- COc1cc(/C=C2/SC(=Nc3ccc(O)cc3)NC2=O)ccc1O
    i | 0.46
- CN1CCN(CCCCOc2ccc(Br)cc2)CC1
    i | 1.3
- CCc1c(C)sc(NC(=O)c2ccc(Br)o2)c1C(=O)OC
    i | 2.17
- N#CCCN/N=C(/Cc1nc2ccccc2[nH]1)c1cccc(Cl)c1
    -5.98* | 1.08*
- COCc1ccc(C(=O)N2CCCC(C(=O)c3cc(F)ccc3F)C2)s1 (stereo not given)
    i | -0.16
- CC(C)OC(=O)c1c(NC(=O)c2cccs2)sc2c1CCCC2
    i | -1.67
- Cc1ccc(S(=O)(=O)NCC(=O)N/N=C/c2ccccc2O)cc1
    i | 1.43
- O=C(COn1nnc2ccc(S(=O)(=O)N3CCOCC3)cc21)NCCc1ccccc1
    i | 0.96
- O=c1cc(-c2ccccc2Cl)oc2c(NS(=O)(=O)c3cc(Cl)cc(Cl)c3O)ccc(O)c12
    i | -0.29
- COC(C(=O)Nc1ccnn1C1CCN(Cc2ccccn2)CC1)c1ccccc1 (stereo not given)
    i | -0.14
- CCN1/C(=C/c2sc(-c3ccccc3C)c[n+]2C)Sc2ccccc21
    -7.01* | -1.35*
- CCCCc1nc2ccccc2n1Cc1nnc2n1-c1ccccc1SC2
    i | 0.94
- Cc1noc(/C=C/c2ccccn2)c1[N+](=O)[O-]
    i | -0.06
- COc1ccc(-c2c(NC(=O)c3ccco3)oc3c(C)cccc3c2=O)cc1OC
    i | -0.57
- CCC(Oc1ccccc1OC)C(=O)Nc1ccc2c(c1)OCO2 (stereo not given)
    i | -0.04
- Cc1cc(=O)oc2cc(NC(=O)C(CCCN=C(N)N)NC(=O)OCc3ccccc3)ccc12 (stereo not given)
    i | 0.03
- COc1ccc(-c2nn(-c3ccccc3)cc2/C=N/Nc2ccc3ccccc3n2)cc1OC
    i | -1.07
- COC(=O)CCC(=O)Nc1cc(Cl)cc(Cl)c1
    i | 0.94
- Cc1cccc(C(=O)Oc2ccc(/C=N/O)cc2)c1
    i | -0.09
- Cc1cc(F)ccc1S(=O)(=O)N1CCCOC1CNC(=O)C(=O)NCc1ccc2c(c1)OCO2 (stereo not given)
    i | 1.24
- CCn1nnc(NC(=O)COc2ccc([N+](=O)[O-])cc2)n1
    i | 0.25

Nothing new here: 4 of the compounds above.
Screens in order – KCNQ2 block | KCNQ2 block baseline
- Cc1noc(/C=C/c2ccccn2)c1[N+](=O)[O-]
    i | -0.06
- COc1ccc(-c2c(NC(=O)c3ccco3)oc3c(C)cccc3c2=O)cc1OC
    i | -0.57
- CCC(Oc1ccccc1OC)C(=O)Nc1ccc2c(c1)OCO2 (stereo not given)
    i | -0.04
- Cc1cc(=O)oc2cc(NC(=O)C(CCCN=C(N)N)NC(=O)OCc3ccccc3)ccc12 (stereo not given)
    i | 0.03

Copied from the list.
KCNQ2 block baseline, CCCCc1nc2ccccc2n1Cc1nnc2n1-c1ccccc1SC2 reads 0.94
KCNQ2 block baseline, Cc1cccc(C(=O)Oc2ccc(/C=N/O)cc2)c1 reads -0.09

(further entries)
Screens in order – KCNQ2 block | KCNQ2 block baseline
- O=C(CSc1nnc(-c2cccnc2)n1CCc1ccccc1)NCc1ccccc1
    i | -0.15
- COc1ccc(C(=O)N/N=C/c2c(CO)cnc(C)c2O)cc1
    i | 0.52
- COc1ccccc1N1CCN(C(C)C(=O)Nc2ccc(S(=O)(=O)N3CCOCC3)cc2)CC1 (stereo not given)
    i | 1.48
- CCOc1cccc2c1OC1(C)CC2NC(=O)N1c1cccc(F)c1 (stereo not given)
    i | -0.95
- COc1ccc(NS(=O)(=O)c2ccc(OC)c(NC(=O)CCC3CCCC3)c2)cc1
    i | 0.66
- CCN(CC)C(=O)Cn1cc(S(=O)(=O)CC(=O)N2CCCCCC2)c2ccccc21
    i | 1.34
- N#C/C(=C\c1ccccc1[N+](=O)[O-])C(=O)Nc1ccc(S(N)(=O)=O)cc1
    i | -0.12

Compound activity from PubChem.
